NOMO-1 viab: STK33 inhibitor candidate reducing NOMO-1 cell viability; NOMO-1 AML viability, CellTiter-Glo luminescence, 72 h; inhibition, % (no concentration beside the values); hit rate 7.5% among 37,000;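 active means most replicates above 80%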;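 further: wells of about 30 µL received 25 nL stock; 0% = median of vehicle wells and 100% = reference inhibitor level; the first replicate is given; inactives centre near 10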
* marks the source's active call; other numbers are inactive results. The list is partial; rates above refer to the full screens.

Molecule | NOMO-1 viab
CN(C(=O)CCCOc1ccc2[nH]c(=O)ccc2c1)C1CCCCC1 | -11.2
COc1cc(O)c2c(=O)cc(-c3ccc(OC)c(-c4c(O)cc(O)c5c(=O)cc(-c6ccc(O)cc6)oc45)c3)oc2c1 | 107.5*
CCOc1ccc(NC(=O)Cn2cc(C(=O)c3ccco3)c3ccccc32)cc1 | -12.0
O=[N+]([O-])c1ccc(O)c(C(c2c[nH]c3ccccc23)c2c[nH]c3ccccc23)c1 | 16.0
Cc1cc(-c2ccccc2)nnc1NCCN1CCOCC1 | -5.1
Cc1c(NC(=O)c2cccnc2)c(=O)n(-c2ccccc2)n1C | 3.4
COc1cc2ncnc(Nc3cccc(O)c3)c2cc1OC | -3.8
CC1(C)O[C@H]2CC(=O)OC[C@]23[C@H]2CC[C@@]4(C)[C@H](c5ccoc5)OC(=O)[C@H]5O[C@]54[C@]2(C)C(=O)C[C@@H]13 | 4.5

Compounds listed so far that have an aryl methoxy group:
Molecule | NOMO-1 viab
COc1cc(O)c2c(=O)cc(-c3ccc(OC)c(-c4c(O)cc(O)c5c(=O)cc(-c6ccc(O)cc6)oc45)c3)oc2c1 | 107.5*
COc1cc2ncnc(Nc3cccc(O)c3)c2cc1OC | -3.8

In a second layout: results already given.
O=[N+]([O-])c1ccc(O)c(C(c2c[nH]c3ccccc23)c2c[nH]c3ccccc23)c1
  NOMO-1 viab = 16.0

Cc1cc(-c2ccccc2)nnc1NCCN1CCOCC1
  NOMO-1 viab = -5.1

Screening results (PubChem)
